# V. cholerae motility: Vibrio cholerae motility inhibitors, OD read-out (AID 588778); Vibrio cholerae motility, OD read-out; higher % means a stronger effect; test concentration not given here; primary cut-off and reference of the scale not given here; strong numbers were not always called active; inhibition, %, or IC50 in µg/mL where a hit was titrated; 10,000 tested, under 10 active; in the data active means confirmed in a dose series
# V. cholerae motility viability: second read-out of V. cholerae motility, no call of its own (marks repeat the call); inhibition, %; measured here: bacterial viability at 10 ug/mL;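 higher means fewer living bacteria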
# The depositor's hits bear a star.
# Values in the order – V. cholerae motility, V. cholerae motility viability
O=C(CSc1ccc(Cl)cc1)NCc1ccc(-c2nc3ccccc3s2)cc1
  -17%, -7
Cn1c2ccc(F)cc2c2n[nH]c(=S)nc21
  17%, 5
CC(=O)OC(C(=O)N/C(N)=N/c1nc2ccccc2o1)c1ccccc1 (configuration not stated)
  9%, 0
CC(=O)c1ccc(NC(=O)Nc2cc(OCC(F)(F)F)cc(OCC(F)(F)C(F)F)c2)cc1
  13%, -1
O=C(NCc1ccco1)c1ccc(COCC(F)(F)F)cc1
  -7%, 0
Fc1ccc(NC(=S)Nc2cc(-c3ccccc3)[nH]n2)cc1Cl
  11%, 14
Cn1cc(I)c(C(=O)NNC(=O)NC2CCCCC2)n1
  1%, -1
CC(=O)Nc1c(O)[nH]c2ccc(Cl)cc12
  -9%, -3
Cc1ccc(-c2cnc3ccccc3n2)cc1NC(=O)C(C)C
  -17%, -1
O=C(CNC(=O)C1CCCCC1)NNC(=S)Nc1ccccc1
  6%, 5
O=C(CSc1nc2ccccc2o1)N1N=CCC1c1ccccc1 (configuration not stated)
  9%, 0
CCOc1cc(C=O)c(Cl)cc1OCC(=O)NCCc1ccccc1
  -2%, 2
Cc1sc(C(=O)Nc2ccc3ccccc3c2)cc1CC(=O)O
  38%, 10
CNc1ccccc1C(=O)OCC(=O)c1ccccc1Cl
  0%, -2
COc1ccc(S(=O)(=O)N2CCN(C(=S)NC3CCCCC3)CC2)cc1
  -1%, -11
Fc1ccc(NC(=S)NC2C3CCCCC32)cc1 (configuration not stated)
  42%, 17
COc1cc(CNc2ncn[nH]2)cc(Br)c1OC
  16%, 32
COc1cccc(CNCc2ccccc2C(F)(F)F)c1OC
  29%, 8
Cc1ccc(C23CC4CC(CC(C(=O)CN5CCCC5)(C4)C2)C3)cc1
  8%, 35
COc1ccc(OC)c(NC(=O)CN(C2CCCCC2)S(=O)(=O)c2c(C)cc(C)cc2C)c1
  -7%, -8
CC(C)(C)c1ccc(C(=O)Nc2ccc(S(=O)(=O)Nc3nccs3)cc2)cc1Br
  12%, 3
COc1cc(OC)cc(C(=O)NCCOC23CC4CC(CC(C4)C2)C3)c1
  11%, 0
CCOC(=O)c1sc(NC(=O)CSc2nc3c(c(-c4cccs4)c2C#N)CN(C)CC3)c(C#N)c1C
  -4%, -5
Fc1ccccc1CSC1=NCCN1
  2%, -4
COc1ccc(Oc2nc(N3CCOCC3)nc(-c3ccccc3)c2C#N)cc1
  -7%, -6
O=C(CCC(=O)Nc1ccccc1Cl)NNC(=S)NCC1CCCO1 (configuration not stated)
  -2%, -1
O=C(NC(=S)NC12CC3CC(CC(C3)C1)C2)c1ccccc1I
  -9%, -8
O=C(O)C(Cc1c[nH]c2ccccc12)NS(=O)(=O)c1ccc(-c2ccccc2)cc1 (configuration not stated)
  -3%, 1
COc1ccc(C(=O)c2sc(Nc3cccc(C(F)(F)F)c3)nc2N)cc1OC
  -11%, -1
O=C(Nc1cccc2ccccc12)c1cc(=O)n2c(nc3ccccc32)s1
  2%, -7
CC(=O)CCS(=O)(=O)c1ccc(C)c(C)c1
  13%, 7
C=CCNC(=S)NC1C2CN3CCN(C2)CC1(C)C3 (configuration not stated)
  -14%, -3
Cc1c(NC(=O)C(c2ccccc2)c2ccccc2)cccc1-c1nc2ccccc2s1
  -2%, 24
O=C1NC(=Nc2ccc(Br)cc2)SC1Cc1ccc(Cl)c(Cl)c1 (configuration not stated)
  63%, 7
CCC(=O)N1CCN(c2ccc(NC(=S)NC(=O)C(C)C)cc2)CC1
  -6%, 5
O=C1/C(=C\c2cccs2)SC(=S)N1CC1CCCO1 (configuration not stated)
  1%, -2
Cc1ccc(-c2noc(CN3CCN(c4ccccn4)CC3)n2)cc1
  41%, 20
O=C(O)c1cccnc1SC1CC(=O)N(c2ccc(Cl)c(C(F)(F)F)c2)C1=O (configuration not stated)
  12%, 2
CN(Cc1ccccc1)S(=O)(=O)c1ccc(NC(=O)C2CCCO2)cc1 (configuration not stated)
  10%, -1
COc1ccccc1C1=NOC(Cn2c(NCc3ccco3)nc3c2c(=O)n(C)c(=O)n3C)C1 (configuration not stated)
  15%, 0
O=C(CSc1nc2ccccc2s1)N1CCN(c2nc3ccccc3s2)CC1
  6%, 1
O=S(=O)(Cc1ccc(Cl)cc1)N1CCc2ccccc2C1
  0%, -3
N#CCC(=O)Cc1ccccc1[N+](=O)[O-]
  39%, 15
O=C(CC(O)(C(F)(F)F)C(F)(F)F)Nc1cc(Cl)ccc1Cl
  99%, 100
Cc1nc2c3c(cccc3n1)C(=O)c1ccccc1-2
  1%, 7
COC(=O)C(N)c1ccccc1 (configuration not stated)
  1%, 0
C=CCn1c(SCc2nc3ccccc3[nH]2)nnc1-c1ccco1
  3%, 0
Cn1c(SCc2nc3ccccc3n2CC(N)=O)nc2ccccc21
  20%, 0
CCOC(=O)COc1c(I)cc(C(C)=O)cc1I
  2%, -2
CC(Oc1ccc(F)cc1F)C(=O)NNC(=S)NCC1CCCO1 (configuration not stated)
  7%, -4

# Reformatted: results already given.
Cc1nc2c3c(cccc3n1)C(=O)c1ccccc1-2
  V. cholerae motility = 1%	V. cholerae motility viability = 7

COC(=O)C(N)c1ccccc1 (configuration not stated)
  V. cholerae motility = 1%	V. cholerae motility viability = 0

CCOC(=O)COc1c(I)cc(C(C)=O)cc1I
  V. cholerae motility = 2%	V. cholerae motility viability = -2

Cn1c(SCc2nc3ccccc3n2CC(N)=O)nc2ccccc21
  V. cholerae motility = 20%	V. cholerae motility viability = 0

# More structures.
# Values in the order – V. cholerae motility, V. cholerae motility viability
O=S(=O)(c1cc(Cl)cc(S(=O)(=O)C(F)(F)F)c1)C(F)(F)F
  -1%, -3
C(=C\c1ccccc1)/CN1CCN(c2nc(-c3ccccc3)cs2)CC1
  1%, -1
Cc1ccc(-c2nn(C)c(=O)c3ccccc23)cc1CNS(C)(=O)=O
  -1%, -5
Cc1c(C(=O)OCc2ccccc2)sc(N)c1C#N
  -13%, -13
COC(=O)C1=C(C)NC(C)=C(C(=O)OC)C1c1sccc1C
  20%, 0
COc1ccc(CC(=O)Nc2cccc(NC(=O)Cc3ccc(OC)c(OC)c3)n2)cc1OC
  5%, 1
CN1C(=O)C(O)(CC(=O)c2ccco2)c2cc([N+](=O)[O-])ccc21 (configuration not stated)
  -11%, -5
O=C(COc1ccc(F)cc1)NCCN1CCOCC1
  -1%, 1
O=S(=O)(/N=C(\Nc1ccc(Cl)c(S(=O)(=O)N2CCOCC2)c1)c1ccc(F)cc1)c1ccccc1
  10%, 19
Cc1ccc(-c2ccccc2)n1-c1cccnc1
  6%, 1

# The final 5 records of the section before are carried over, then new ones follow.
# Values in the order – V. cholerae motility, V. cholerae motility viability
COc1ccc(CC(=O)Nc2cccc(NC(=O)Cc3ccc(OC)c(OC)c3)n2)cc1OC
  5%, 1
CN1C(=O)C(O)(CC(=O)c2ccco2)c2cc([N+](=O)[O-])ccc21 (configuration not stated)
  -11%, -5
O=C(COc1ccc(F)cc1)NCCN1CCOCC1
  -1%, 1
O=S(=O)(/N=C(\Nc1ccc(Cl)c(S(=O)(=O)N2CCOCC2)c1)c1ccc(F)cc1)c1ccccc1
  10%, 19
Cc1ccc(-c2ccccc2)n1-c1cccnc1
  6%, 1
N#Cc1c(Nc2ccccc2)c(C=O)c[nH]c1=O
  -13%, 0
CN(C)CCC(=O)c1cccc(Br)c1
  17%, 5
CCN(CC)c1ccc(C=Nc2ccc3nc(-c4ccc(Cl)cc4Cl)[nH]c3c2)cc1
  5%, 0
COc1ccc(OC)c(NC(=O)CCN2CCN(Cc3cccc4ccccc34)CC2)c1
  23%, 8
O=C(O)c1cccc(C(=O)c2cccc(C(=O)O)c2)c1
  -13%, -9
C=CCn1c(SCC(=O)c2ccc(Cl)s2)nc2sc(C)c(C)c2c1=O
  -10%, -2
CC(=O)OCc1cc(/C=C(/C#N)C(N)=S)c(C)cc1C
  -17%, -8
Nc1nc(CSc2nnnn2-c2ccccc2)nc(N2CCCc3ccccc32)n1
  9%, 6
COc1ccccc1NC(=O)C1=C(C)NC2=C(C(=O)CC(c3ccc(OC)c(OC)c3)C2)C1c1coc2ccccc2c1=O (configuration not stated)
  -4%, -4
Cc1nnc2sc(-c3csc4c3CCCC4)nn12
  -10%, -6
C#CCOC(=O)CCC(=O)NCCc1ccccc1
  -9%, -7
O=C(NCc1cccs1)c1ccc2c(=O)n(CCCN3CCCC3=O)c(=S)[nH]c2c1
  -6%, -2
CCSc1ncc(Cl)c(C(=O)Nc2c(C)n(C)n(-c3ccccc3)c2=O)n1
  -1%, 0
CN1CCN(NC(=S)Nc2ccccc2F)CC1
  -4%, -4
N#Cc1c(NC(=O)CSc2nnc(CCCOc3ccc(Cl)cc3Cl)o2)sc2c1CCCC2
  8%, 25
CC(=O)Nc1ccc(NC(=O)Nc2ccccc2C)cc1
  7%, -1
CCOC(=O)N1CCN(C(=S)Nc2ccc3nsnc3c2)CC1
  10%, 4
O=C(Nc1ncnc2oc(-c3ccccc3)c(-c3ccccc3)c12)c1ccco1
  -6%, 0
O=C(CN1C(=O)C2C3c4ccccc4C(c4ccccc43)C2C1=O)Oc1ccccc1Cl (configuration not stated)
  -13%, -7
CCN1CCN(CCCCOc2ccc(C)cc2I)CC1
  1%, 2
O=C(Nc1cccc(Cl)c1)Nc1ccccc1C1CC1(Cl)Cl (configuration not stated)
  27%, 22
COc1cc(OC)cc(C(=O)N2CCC(C(=O)Nc3ccc(Cl)c(C(F)(F)F)c3)CC2)c1
  25%, 12
O=C(NCCCCNC(=O)C(F)(F)F)C(F)(F)F
  -11%, -7
CN(C)c1ccc(CNCc2cccs2)cc1
  1%, 0
O=C(CSc1n[nH]c(-c2ccc(Cl)cc2)n1)c1ccc(Br)cc1
  -15%, -10
Cn1cccc1-c1nc2ccc(NC(=O)c3ccc([N+](=O)[O-])cc3)cc2[nH]1
  -8%, -4
O=C(CSc1cccc2cccnc12)NC1=NCCS1
  2%, -2
O=C(Nc1ccc(Br)c(C(F)(F)F)c1)c1ccccc1[N+](=O)[O-]
  31%, 3
Cc1cc(Cl)c(Cl)cc1S(=O)(=O)Nc1ccc2cn[nH]c2c1
  24%, 8
CCCNC(=O)Nc1cccc(F)c1C
  -6%, -2
C=C(C)C1Cc2cc3ccc(=O)oc3cc2O1 (configuration not stated)
  13%, 2
O=C(NCc1ccco1)C1C(c2ccccc2)C1(Cl)Cl (configuration not stated)
  6%, 1
O=C(O)C1CC=C(Cl)CC1C(=O)Nc1cncs1 (configuration not stated)
  8%, -6
CCOC(=O)C(=CNc1ccccc1C(=O)O)C(=O)OCC
  -1%, -5
O=C(CSc1ncn[nH]1)NCc1ccccc1
  -12%, -3
CCCc1cc(=O)[nH]c(SCC(=O)Nc2nc3ccc([N+](=O)[O-])cc3s2)n1
  2%, -4
CN1Cc2cc(Br)ccc2NC1=O
  -6%, -1
O=C(CSCc1c(Cl)cccc1Cl)NCCC1=CCCCC1
  -6%, -4
N#C/C(=C/c1ccc(Br)o1)c1ccc2c(c1)OCO2
  9%, -4
O=C(CCc1ccccc1)NC(c1cccs1)c1cc(Cl)c2cccnc2c1O (configuration not stated)
  -5%, 1
COc1ccc(C(=O)NCCc2ccc(S(N)(=O)=O)cc2)cc1[N+](=O)[O-]
  -13%, -5
C=CCN(CC=C)C(=O)c1cccc(NC(=O)C(C)C)c1
  -14%, -9
Cc1cc(C(=O)NC(C)c2ccc3c(c2)OCO3)no1 (configuration not stated)
  10%, 9
COc1cccc(-c2nnc(SCc3nc4ccccc4[nH]3)n2N)c1
  8%, -1
CCc1ccc(C(=O)Nc2cc(C)ccc2F)s1
  18%, 3
CC(C)OCCCNC(=O)Cc1ccc(Br)cc1
  5%, -6
CC(=O)NC(=S)Nc1ncc(I)cc1C
  -4%, 0
CCOc1ccc(CCNC(=O)c2cccnc2N2CCOCC2)cc1OCC
  -3%, -6
O=C(CCC(=O)OCC(=O)c1ccc(Cl)c(Cl)c1)Nc1ccccc1C(F)(F)F
  16%, 32
S=c1nc(-c2ccc(Br)cc2)n(Cc2ccco2)c2c1CCCC2
  17%, 16

# Continuation.
# Values in the order – V. cholerae motility, V. cholerae motility viability
O=S(=O)(Nc1ccc(Br)cc1F)c1cccs1
  2%, -1
O=C(c1cccs1)N1C(=O)c2cccc3c(S(=O)(=O)N4CCCC4)ccc1c23
  12%, 0
O=C(O)Cc1ccc(NC(=O)c2ccc(Br)o2)cc1
  -6%, -9
CC1CCc2cc(F)ccc2N1C(=O)C12CCC(C)(C(=O)O1)C2(C)C (configuration not stated)
  -7%, 1
O=C1CC(c2cccs2)Sc2nc(-c3ccccc3)c(-c3ccccc3)n21 (configuration not stated)
  -16%, -9
CC1CCc2cc(F)ccc2N1S(=O)(=O)c1cc(Cl)ccc1Cl (configuration not stated)
  -9%, 20
CN1CCn2c1nc(N1CCOCC1)nc2=O
  -9%, 1
O=C(CNC(=O)C1CCCCC1)NNC(=S)NC(=O)c1cccs1
  45%, 21
COc1cc(OC)nc(NC(=O)CSc2nc3ccccc3[nH]2)n1
  6%, 8
COC(=O)c1sc(NC(=O)c2ccc(-c3ccccc3[N+](=O)[O-])o2)c(C#N)c1C
  -19%, -9
C=CCc1ccc(OCCOCCNCCN)c(OC)c1
  7%, 14
O=c1ccc2ccc(OCc3cc4c(cc3Cl)OCO4)cc2o1
  -21%, -3
Cc1c(-n2c(-c3ccc(Cl)cc3Cl)nc3ccccc3c2=O)c(=O)n(-c2ccccc2)n1C
  2%, -5
O=C(NCCCn1ccnc1)Nc1cccc(Cl)c1
  11%, 3
CC(C)(C)C1CCC(OC(=O)CCC(=O)O)CC1 (configuration not stated)
  -2%, 0
O=C(Nc1ccc(Cl)cc1)Nc1nc2ccc(Br)cc2s1
  23%, 2

# Only part of the results is shown; rates above refer to the full screens.
